Screens as filed in PubChem BioAssay.
YjeE inh: displaces an ADP probe from E. coli YjeE (TsaE). P0AF67. purified YjeE, fluorescence polarisation of a bound ADP probe. Potency, µM. 0.05% of 71,000 active; active = well fitted falling curve; inconclusive = weaker or top-dose-only fall, or a rising curve; inactive = flat or poorly fitted curve;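 also: top concentration of the series not given in the record; excess ADP was the control for the full effect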
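Purified YjeE (10 uM) with BODIPY Texas Red-labeled ADP probe (2 uM); compounds pin-transferred, 15 min at room temperature. Binding inhibition read as decreased fluorescence polarization; ADP titration as control.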
Bst PK mod: alters activity of Bacillus stearothermophilus pyruvate kinase; partly purified Bacillus stearothermophilus pyruvate kinase, luminescence ATP production; ribose 5-phosphate activator present at AC10; Potency, µM; 1.2% of 51,000 active; AID 361; in the data active means potency below about 11 µM; inconclusive means mostly about 12 µM to 25 µM; inactive means weaker than that;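 the screen sought inhibitors and activators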;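 also: potency is read from the fitted curve at half-maximal effect; scaled between full activation by ribose 5 phosphate and full inhibition by luteolin; about four in five hits inhibit and the cells do not say which; series up to 57 µM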
* marks the source's active call; other numbers are inactive results. Not all compounds are listed. The share of hits here may be higher or lower than overall.

How did CCn1c(N2CCN(CC(=O)Nc3cccc(C)c3C)CC2)nc2ccccc21 do in these assays?
YjeE inh: inactive; Bst PK mod: >57

How did O=c1c(/C=N/O)coc2ccc3ccccc3c12 do in these assays?
YjeE inh: inactive

How did CC1CCN(CC(=O)N2c3ccccc3CCc3ccccc32)CC1 do in these assays?
YjeE inh: inactive

How did Cn1c(=O)oc2cc(S(=O)(=O)NCc3ccccn3)ccc21 do in these assays?
YjeE inh: inactive

What do the screens show for `COCCCn1c(SCc2cc(=O)[nH]c3ccccc23)nnc1-c1ccco1`?
YjeE inh: inactive; Bst PK mod: >57

What do the screens show for `O=C(Oc1ccnc2cc(Cl)ccc12)N1CCCCCC1`?
YjeE inh: inactive

Results for O=c1cnc2cnc(OCc3ccccc3)nc2n1CCc1ccccc1 ?
YjeE inh: inactive

How did COc1ccc(C(c2nnnn2C(C)(C)C)N2CCN(C)CC2)cc1OC (centres undefined) do in these assays?
YjeE inh: inactive; Bst PK mod: >57

How did O=C(NC1CCCCCC1)c1nnc(Cc2ccc(Cl)cc2)o1 do in these assays?
YjeE inh: inactive

How did CCc1c(C)nc(SCCOc2ccc(OC(C)C)cc2)[nH]c1=O do in these assays?
YjeE inh: inactive; Bst PK mod: >57

What do the screens show for `CC1(C)Cc2c(C#N)c(N3CCN(C(=O)c4ccco4)CC3)nc(Cc3ccccc3)c2CO1`?
Bst PK mod: >26

Results for COc1ccc(-c2noc(CCC(=O)Nc3ccc(C)c(C)c3)n2)cc1 ?
YjeE inh: inactive; Bst PK mod: >57

What do the screens show for `Cc1ccc2oc(=O)c3cnn(CC(=O)NCCCOC(C)C)c3c2c1`?
YjeE inh: inactive

What do the screens show for `O=C1C=C(c2ccccc2)C(O)(c2ccccc2)C1` (centres undefined)?
YjeE inh: inactive; Bst PK mod: >57

What do the screens show for `COc1cc(/C=N/n2cnnc2)ccc1OC(=O)c1ccncc1`?
YjeE inh: inactive

What do the screens show for `CCOc1ccc(S(=O)(=O)n2nnc3ccccc32)cc1C(C)C`?
YjeE inh: inactive; Bst PK mod: >57

How did N#C/C(=C1\CCCN1)c1ccc2ccccc2n1 do in these assays?
YjeE inh: inactive; Bst PK mod: inactive

Results for Cc1cnc(NC(=O)c2ccco2)s1 ?
YjeE inh: inactive

Results for Cc1ccc(OCC(=O)N2CCC(N3CCCCCC3)CC2)cc1 ?
Bst PK mod: >26

Results for CC(C)c1ccc(-c2nc(N3CCCCC3)[nH]c(=O)c2C#N)cc1 ?
YjeE inh: inactive; Bst PK mod: >57

Results for CC(OC(=O)c1cc2sccc2n1C)C(=O)NCc1ccc2c(c1)OCO2 (centres undefined) ?
YjeE inh: inactive; Bst PK mod: >57

Results for CC1(C)CC(=O)c2sc(NC(=O)CN3C(=O)CCC3=O)nc2C1 ?
YjeE inh: inactive

Results for COc1cccc(-c2nccc(NCc3cccnc3)n2)c1 ?
YjeE inh: inactive

How did COC(=O)c1c(NC(=O)CN2CCN(c3ccccc3)CC2)c2c(C)cccc2n1C do in these assays?
YjeE inh: inactive; Bst PK mod: >57

How did O=C(Nc1cccnc1)c1cccs1 do in these assays?
YjeE inh: inactive; Bst PK mod: >57

What do the screens show for `Cc1ccc(Cl)cc1N1CCN(C(CC(C)C)c2nnnn2CC2CCCO2)CC1` (centres undefined)?
YjeE inh: inactive; Bst PK mod: >57

How did Cc1cccc(C)c1OCC(=O)Nc1cccc(NC(=O)c2ccco2)c1 do in these assays?
YjeE inh: inactive; Bst PK mod: inconclusive

What do the screens show for `Cc1ccc(S(=O)(=O)Cn2nnnc2CN(Cc2ccco2)Cc2cccs2)cc1`?
YjeE inh: inactive; Bst PK mod: >57

What do the screens show for `COc1ccc2c(c1)C(=O)N(c1ccccc1OC)C(=O)C2(C)C`?
YjeE inh: inactive; Bst PK mod: >57

Results for O=C(O)C1C2C=CC(C2)C1C(=O)OCc1ccccc1 (centres undefined) ?
YjeE inh: inactive; Bst PK mod: >57

What do the screens show for `CCCN(CCC)c1nc2ccccc2nc1C(C#N)C(=O)OC(C)COC` (centres undefined)?
Bst PK mod: >26

Results for CN(C)C(=O)CSc1nnc(C23CC4CC(CC(C4)C2)C3)o1 ?
YjeE inh: inactive; Bst PK mod: >57

Results for COC(=O)CCCCCN1C(=O)NC(CC2CC2)C(C(=O)OCc2ccccc2)=C1C (centres undefined) ?
YjeE inh: inactive

What do the screens show for `CC(C)(C)CC(C)(C)c1ccc(OCCOCC[N+](C)(C)Cc2ccccc2)cc1`?
YjeE inh: inactive

What do the screens show for `COc1ccc(NC(=O)CN2CCN(C3c4ccccc4-c4ccccc43)CC2)c(OC)c1`?
YjeE inh: inactive; Bst PK mod: >57

Results for Cc1cc2c(c(=O)o1)C(C13C=CC(CC1)C3)C(C#N)=C(N)O2 (centres undefined) ?
YjeE inh: inactive; Bst PK mod: >57

Results for CCCc1cc2c(c(NC(C)=O)n1)c(=O)oc1ccccc12 ?
YjeE inh: inactive

What do the screens show for `O=C1c2ccccc2C(=O)N1Cc1nn2c(-c3ccc(Cl)cc3)nnc2s1`?
YjeE inh: inactive; Bst PK mod: >57

How did CC1(C)CC2(CCO1)N1CC3(C)CN2CC(C)(C1)C3O (centres undefined) do in these assays?
YjeE inh: inactive; Bst PK mod: >57

What do the screens show for `CS(=O)(=O)NC1c2cccc3cccc(c23)C1N1CCOCC1` (centres undefined)?
YjeE inh: inactive; Bst PK mod: inconclusive

What do the screens show for `CC(=O)O[C@H]1C[C@H]2CC[C@@H]3[C@@H](CC[C@]4(C)[C@H](OC(C)=O)[C@H]([N+]5(C)CCCCC5)C[C@@H]34)[C@]2(C)C[C@H]1[N+]1(C)CCCCC1`?
YjeE inh: inactive

How did CC(=O)N1CCc2cc(C(=O)CN3CCCCC3)ccc21 do in these assays?
YjeE inh: inactive

What do the screens show for `CCOC(=O)C(Cc1ccccc1)C(=O)Nc1nccs1` (centres undefined)?
YjeE inh: inactive

How did CCCN(c1ccc(C(C)C)cc1)S(=O)(=O)c1c(C)[nH]c(=O)[nH]c1=O do in these assays?
YjeE inh: inactive; Bst PK mod: >57

Results for O=C(Nn1cc(C(=O)N2CCN(c3ccccc3F)CC2)c2ccccc2c1=O)c1cnccn1 ?
YjeE inh: inactive; Bst PK mod: >57

Results for CNC(=O)C1CC(=O)N(c2ccc(F)c(Cl)c2)C1 (centres undefined) ?
YjeE inh: inactive; Bst PK mod: >57

How did COC(=O)[C@@]1(Cc2ccc(F)cc2)[C@H]2c3cc(C(=O)N4CCCC4)n(CCF)c3C[C@H]2CN1C(=O)c1ccccc1 do in these assays?
YjeE inh: inactive

What do the screens show for `Cc1noc(C)c1-c1nc(N(C)C)c2ccccc2n1`?
YjeE inh: inactive

Results for O=C(Nc1cc(C(F)(F)F)ccc1N1CCCC1)c1cccnc1 ?
YjeE inh: inactive; Bst PK mod: >57

What do the screens show for `CC(C)CCNC(=O)C(c1ccco1)N(C(=O)Cn1nnc2ccccc21)c1ccc2c(c1)OCO2` (centres undefined)?
YjeE inh: inactive; Bst PK mod: >57

What do the screens show for `Cc1nc(C)n(CC(O)COc2ccc3ccccc3c2)n1` (centres undefined)?
YjeE inh: inactive; Bst PK mod: >57

What do the screens show for `CCOc1ccc(-c2nnn(CC(=O)Nc3cccc(OC)c3)n2)cc1OCC`?
YjeE inh: inactive; Bst PK mod: >57

Results for O=C(COC(=O)C1(c2ccccc2F)CCCC1)NC1CCS(=O)(=O)C1 (centres undefined) ?
YjeE inh: inactive; Bst PK mod: >57

Results for CCCCCSc1nnc2c(n1)OC(C)N(C(C)=O)c1ccccc1-2 (centres undefined) ?
YjeE inh: inactive

How did CC(NC(=O)Nc1ccccn1)N1C(=O)C2C3C=CC(C3)C2C1=O (centres undefined) do in these assays?
YjeE inh: inactive; Bst PK mod: >57

How did CCCOC(=O)c1ccc(Oc2cn[nH]c2-c2ccc(OC)cc2O)cc1 do in these assays?
YjeE inh: inactive; Bst PK mod: >57

Results for CCC(=O)N1CCc2cc(S(=O)(=O)N3CCN(C(=O)c4ccco4)CC3)ccc21 ?
YjeE inh: inactive; Bst PK mod: >57

How did CC(Oc1ccc(Cl)cc1Cl)C(=O)NCCCN1CCOCC1 (centres undefined) do in these assays?
YjeE inh: inactive

What do the screens show for `COC1=C(OC)c2ccccc2C(C(=O)O)N/C1=C(/C)Nc1ccncc1` (centres undefined)?
YjeE inh: inactive; Bst PK mod: >57

Results for COCCn1c(=O)c(-c2cc(F)cc(F)c2)nc2cncnc21 ?
YjeE inh: inactive

Brought forward from above: 2 compounds, then new ones.
What do the screens show for `COC1=C(OC)c2ccccc2C(C(=O)O)N/C1=C(/C)Nc1ccncc1` (centres undefined)?
YjeE inh: inactive; Bst PK mod: >57

Results for COCCn1c(=O)c(-c2cc(F)cc(F)c2)nc2cncnc21 ?
YjeE inh: inactive

What do the screens show for `CC(=O)c1c(C)[nH]c(C(=O)CSc2nnc(C3CCCCC3)n2N)c1C`?
YjeE inh: inactive; Bst PK mod: >57

Results for CCOc1ccc(C(C)=O)cc1N1C(=O)C2C3C=CC(O3)C2C1=O (centres undefined) ?
YjeE inh: inactive; Bst PK mod: >57

Results for O=C(NS(=O)(=O)c1ccc(NC(=O)C2CCCO2)cc1)c1ccccc1 (centres undefined) ?
YjeE inh: inactive; Bst PK mod: >57

How did Cc1cccn2c(=O)c3cc(C#N)c(=NC(=O)c4ccncc4)n(CCCOC(C)C)c3nc12 do in these assays?
YjeE inh: inactive; Bst PK mod: >57

How did CC(=O)Nc1cc(C(=O)N2CCCC2)ccc1S(=O)(=O)c1ccc(C)cc1 do in these assays?
YjeE inh: inactive; Bst PK mod: >57

What do the screens show for `C=C(C)Cn1c(N2CCCC2)nc2c1c(=O)[nH]c(=O)n2C`?
YjeE inh: inactive

Results for O=C(O)c1ccc(NC(=O)C2CC=CCC2C(=O)O)cc1 (centres undefined) ?
YjeE inh: inactive

How did CC1CCCCC1NC(=O)c1ccc(S(=O)(=O)NCc2ccco2)cc1 (centres undefined) do in these assays?
YjeE inh: inactive; Bst PK mod: >57

Results for Cc1cccc(OCC(=O)N(Cc2cccs2)C2CCS(=O)(=O)C2)c1 (centres undefined) ?
YjeE inh: inactive; Bst PK mod: >57

Results for Nc1nnnn1CC(=O)OCc1cccc(Br)c1 ?
Bst PK mod: >26

Results for COc1ccc(C(=O)CSc2nnc(-c3ccoc3C)n2CC2CCCO2)cc1 (centres undefined) ?
YjeE inh: inactive; Bst PK mod: >57

Results for O=S(=O)(c1ccccc1)N1CCC(N2CCN(c3ccccc3)CC2)CC1 ?
Bst PK mod: >26

Random excerpt: 5 records from the list, in no set order.
How did Cc1cccn2c(=O)c3cc(C#N)c(=NC(=O)c4ccncc4)n(CCCOC(C)C)c3nc12 do in these assays?
YjeE inh: inactive; Bst PK mod: >57

Results for Nc1nnnn1CC(=O)OCc1cccc(Br)c1 ?
Bst PK mod: >26

What do the screens show for `C=C(C)Cn1c(N2CCCC2)nc2c1c(=O)[nH]c(=O)n2C`?
YjeE inh: inactive

Results for Cc1cccc(OCC(=O)N(Cc2cccs2)C2CCS(=O)(=O)C2)c1 (centres undefined) ?
YjeE inh: inactive; Bst PK mod: >57

What do the screens show for `CC(=O)c1c(C)[nH]c(C(=O)CSc2nnc(C3CCCCC3)n2N)c1C`?
YjeE inh: inactive; Bst PK mod: >57

More structures:
Results for Cc1ccc2nc(NCCO)nc(-c3ccccc3)c2c1 ?
YjeE inh: inactive; Bst PK mod: >57

How did C[C@@H](C(=O)Nc1ccc2ccccc2c1)[C@@H]1C[C@@]1(C)[C@@H](NS(=O)(=O)c1ccc(-c2ccccc2)cc1)c1ccccc1 do in these assays?
YjeE inh: inactive

What do the screens show for `O=C(OCN1C(=O)c2ccccc2C1=O)c1ccc2c(=O)n3c(nc2c1)CCC3`?
YjeE inh: inactive; Bst PK mod: >57

Results for COCCCN1C(=O)C(O)=C(C(=O)c2ccco2)C1c1cccc(Br)c1 (centres undefined) ?
YjeE inh: inactive

What do the screens show for `CC(=O)c1cccc(NC(=O)N2CCCC2C(=O)Nc2cccc(C)c2C)c1` (centres undefined)?
YjeE inh: inactive

Results for CCc1nn(CC(=O)NCCCN2CCCC2=O)c(=O)c2cc3sccc3n12 ?
YjeE inh: inactive

What do the screens show for `COC(=O)Nc1ncc(CN2C(=O)c3ccccc3C2=O)s1`?
YjeE inh: inactive; Bst PK mod: >57

Results for COCCNC(=O)C(c1ccc(C)o1)N(CC1CCCO1)C(=O)Cn1nnc2ccccc21 (centres undefined) ?
YjeE inh: inactive; Bst PK mod: >57

How did CN(C)S(=O)(=O)c1ccc(C(=O)NCc2cccs2)cc1 do in these assays?
YjeE inh: inactive; Bst PK mod: >57

How did O=C(O)CS(=O)(=O)c1ccc(Oc2ccc(S(=O)(=O)CC(=O)O)cc2)cc1 do in these assays?
YjeE inh: inactive; Bst PK mod: >57

What do the screens show for `CCOC(=O)N1CCN(S(=O)(=O)c2ccc3c(c2)SC(C)C(=O)N3)CC1` (centres undefined)?
YjeE inh: inactive; Bst PK mod: >57

What do the screens show for `CN(C(=O)c1c(Cl)nc2sccn12)C1CCCCC1`?
YjeE inh: inactive; Bst PK mod: >57

Results for CCCC1(C(=O)O)NC(c2ccc(OC)cc2O)C2C(=O)N(c3ccc(OC)cc3)C(=O)C21 (centres undefined) ?
YjeE inh: inactive

What do the screens show for `COC(=O)c1nc(NC(=O)c2ccc(Cl)cc2)n[nH]1`?
YjeE inh: inactive; Bst PK mod: >57

Results for Cc1csc(SCC(=O)Nc2cccc3nsnc23)n1 ?
YjeE inh: inactive; Bst PK mod: >57

Filtered by structure: the compounds so far containing a tert-butyl group
How did COc1ccc(C(c2nnnn2C(C)(C)C)N2CCN(C)CC2)cc1OC (centres undefined) do in these assays?
YjeE inh: inactive; Bst PK mod: >57

What do the screens show for `CC(C)(C)CC(C)(C)c1ccc(OCCOCC[N+](C)(C)Cc2ccccc2)cc1`?
YjeE inh: inactive
